gsp agonist: gsp mutant agonism. AID 624287. Potency, µM (titrated, usually from 76.9 µM), without a hit: top-dose activation (cAMP increase), most hits filed as activators. hit rate 0.13% among 340,000. gsp mutant cells, cAMP HTRF, 30 min; control for the full effect not named in the record; active = well fitted activation curve with a large enough effect; inconclusive = small, poorly fitted or top-dose-only effect, or another doubt; inactive = no such curve, though single readings can be large or run the other way; cell line not stated here;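 further: phosphodiesterase inhibitor Ro 20-1724 added with compounds to block cAMP breakdown; potency means the concentration at half of the fitted maximal effect; nearly all actives have a fitted effect of over 60% in size; about a fifth of the inactives were tested at one dose only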
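Cells in DMEM/10% FBS with G418 were pretreated with compounds in DMSO plus […] (300 uM stock) for 30 min at 37C. cAMP was measured by HTRF (cAMP-d2 plus anti-cAMP antibody-K) after 30 min at room temperature.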
D2 agonist: human D2 receptor agonism in beta-arrestin assay | P14416 | DiscoveRx PathHunter D2 beta-arrestin, luminescence, 90 min; 100% = 57 uM dopamine signal | activation, % (concentration not given with the values) | hit rate 0.084% among 360,000 | AID 624465; in the data active = activation above about 40%; inconclusive = about 15% to 40%; inactive = below about 15%; further: compound concentration not given in the record; the text of the record calls up to 30% inactive
Target sequence (P14416 whole entry, looked up): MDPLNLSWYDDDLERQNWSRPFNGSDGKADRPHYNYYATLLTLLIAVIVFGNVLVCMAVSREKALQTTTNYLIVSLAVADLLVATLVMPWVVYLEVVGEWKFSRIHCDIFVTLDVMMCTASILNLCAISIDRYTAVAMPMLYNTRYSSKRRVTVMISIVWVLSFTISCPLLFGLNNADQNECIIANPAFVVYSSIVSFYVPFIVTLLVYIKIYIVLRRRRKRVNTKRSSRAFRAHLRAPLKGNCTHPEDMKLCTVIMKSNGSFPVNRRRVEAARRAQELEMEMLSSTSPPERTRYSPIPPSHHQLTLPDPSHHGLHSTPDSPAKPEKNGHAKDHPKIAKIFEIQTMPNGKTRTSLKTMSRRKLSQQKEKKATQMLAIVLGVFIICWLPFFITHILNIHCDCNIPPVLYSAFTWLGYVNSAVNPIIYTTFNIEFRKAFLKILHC
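Agonist mode: compounds alone added to overnight-plated D2 PathHunter cells for 90 min at 37 C, with 57 uM final dopamine (EC100) defining full response. Beta-arrestin recruitment detected by chemiluminescent reagent, read after 1 h at ambient temperature.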
PINK1 expr mod: changes PINK1 expression; PINK1 immunofluorescence, high-content cytometry, 24 h; Potency, µM (series often up to 76.6 µM), for the others: at the highest dose activation (PINK1 increase), most hits filed as activators; hit rate 0.2% among 410,000; active = well fitted activation curve with a large enough effect; inconclusive = small, poorly fitted or top-dose-only effect; inactive = flat fitted curve, though single readings scatter; cell line not stated here;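 further: potency means the concentration at half of the fitted maximal effect; % of control where 0% means no effect; nearly all actives have a fitted effect of over 65% in size; a mitochondrial uncoupler was the plate control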
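Stable cell line treated 24 h with compounds at 5 concentrations (CCCP controls), then fixed and immunostained for PINK1 plus nuclear and cell stains; PINK1 immunofluorescence quantified by laser-scanning microplate cytometry.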
ClpP mod: qHTS Assay for Activators of ClpP; purified B. subtilis ClpP, FRET peptide cleavage, 20 min; Potency, µM (series often up to 57.5 µM), for the others: top-dose activity change, negative = active; hit rate 1.9% among 340,000; AID 651965, 2013; active = well fitted falling curve with a large enough effect; inconclusive = small, poorly fitted or top-dose-only effect; inactive = no such curve, though single readings can be large or run the other way; further: potency means the concentration at half of the fitted maximal effect; the source files actives as falling curves though it sought activators and does not explain the sign; nearly all actives have a fitted effect of over 65% in size; many hits overshoot -100%
Target sequence (P80244 whole entry, looked up): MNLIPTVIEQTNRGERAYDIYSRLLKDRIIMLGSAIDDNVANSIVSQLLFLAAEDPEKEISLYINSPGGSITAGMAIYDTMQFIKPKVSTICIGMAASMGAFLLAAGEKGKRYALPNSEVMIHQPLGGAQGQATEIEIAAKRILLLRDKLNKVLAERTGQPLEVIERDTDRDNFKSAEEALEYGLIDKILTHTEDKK
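Purified B. subtilis ClpP, 10 microg/mL final in Tris/HCl pH8 with KCl, BSA, glycerol and Tween-20, cleaved an Abz/nitrotyrosine-quenched decapeptide. Fluorescence (ex 320, em 430) was read at 0 and 20 min at room temperature. Delta was normalized to 5.8 microM ADEP and DMSO/no-enzyme controls.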
Menin-MLL FL inh: displaces fluorescein MLL peptide from human menin; Fluorescence polarization, fluorescein-MLL peptide displacement from menin; FP activity change, % at 61.4 µM; 290,000 tested, under 10 active; inconclusive = falling polarisation curve, or a change in total fluorescence; inactive = total fluorescence flat and polarisation flat or rising; no compound was filed as active; the % refers to the polarisation; negative = inhibition;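 further: % of control where 0% means no effect; inhibitors lower the polarisation; unlabelled MLL peptide was the positive control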
Sfp PPTase inh: Sfp phosphopantetheinyl transferase inhibition; hit rate 3.5% among 310,000; AID 1490; Biochemical Sfp PPTase activity, qHTS; Potency, µM, for inactives: max response, negative = inhibition, most hits filed as inhibitors; active means well fitted inhibition curve with a large enough effect; inconclusive means small, poorly fitted or top-dose-only effect, or another doubt; inactive means no such curve, though single readings can be large or run the other way;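 further: the enzyme is Sfp with the accession as filed and its product quenches rhodamine fluorescence; potency means the concentration at half of the fitted maximal effect; 0% = enzyme reaction without inhibitor and -100% = no enzyme wells; top concentration of the series not given in the record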
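After 15 min at room temperature with compound, 15 nM Sfp received 5 uM rhodamine-CoA plus 12.5 uM BHQ-2-ybbR (50 mM Hepes pH 7.6, 10 mM MgCl2). Rate came from the fluorescence difference over 30 min, ex 525/em 598 nm.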
gsp antag: gsp mutant antagonism | gsp-mutant cells, cAMP HTRF, 30 min; control for the full effect not named in the record | AID 624288 | hit rate 0.4% among 340,000 | Potency, µM (doses to about 76.9 µM), without a hit: at the highest dose activity change, negative = inhibition, hits mostly inhibitors; active = falling curve of any shape with a large fitted effect; inconclusive = falling curve, mostly with a smaller effect; inactive = flat or rising curve; cell line not stated here;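 further: intracellular cAMP measured with PDE inhibitor Ro 20-1724 present during compound exposure; potency means the concentration at half of the fitted maximal effect; on the % scale 0 is the no-effect control and ±100 the full control effect; nearly all actives have a fitted effect of over 65% in size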
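Cells in G418 medium, seeded 16-24 h, 37C; buffer exchange to DPBS + 1 mM CaCl2, 0.5 mM MgCl2, 0.05% BSA; cpds in DMSO + […] (300 uM stock), 30 min 37C; HTRF cAMP detection.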
Numbers without * were called inactive; ? = inconclusive; . = no result given; [ ] = dose if it differs, or a comment.

SMILES	gsp agonist	D2 agonist	PINK1 expr mod	ClpP mod	Menin-MLL FL inh	Sfp PPTase inh	gsp antag
CCCCN(C(=O)C1CC(=O)N(c2ccc(OC)cc2OC)C1)c1c(N)n(CC(C)C)c(=O)[nH]c1=O (stereo not drawn)	11%[15.4 µM]	-2.5	-0.2%	-4.0%	1.4	10%	2%
O=C(NC1CCCCNC1=O)c1ccco1 (stereo not drawn)	9%	2.9	-0.3%	1.3%	2.1	14%	-2%
O=S(=O)(Nc1c(S(=O)(=O)c2ccccc2)c2nc3ccccc3nc2n1C1CCCCC1)c1ccccc1	-10%	-9.5	-2.0%	?	?	-26%	-9%
CCOC(=O)c1sc(C)c2c(=O)n(CC)nnc12	-6%	-0.4	0.8%[38.3 µM]	0.0%	0.8	14%	-4%
N/C(Cc1cccc2ccccc12)=N\O	11%[15.4 µM]	7.2	0.3%	-0.7%	4.6	7%	3%
CCOC(=O)c1oc2ccc(/C=N/O)c(Cl)c2c1C	6%[15.4 µM]	-0.6	0.0%	.	0.0	18%	7%
Cc1nn(Cc2ccc(Cl)cc2)c(C)c1NC(=O)CSc1nc2c(c(C(F)(F)F)n1)CCc1ccccc1-2	?	-2.3	0.1%[38.3 µM]	-0.7%	2.2	35µM*	-1%
CCOC(=O)c1oc2ccc(CNC(C)(C)C)c(Cl)c2c1C	-50%[inhibitor]	-2.6	-1.4%[38.3 µM]	-1.7%	-1.5	-7%	4%
CCn1c(SCC(=O)Nc2ccc3c(c2)OCCO3)nnc1C(C)C	-4%[15.4 µM]	-4.2	-0.9%	?	1.4	19%	13%
CC(C)Cc1nnc(NC(=O)c2cc3c(s2)CCC3)s1	-16%[15.4 µM]	0.5	-0.2%	.	7.4	13%	-1%
CC(=C\C(=O)O)/C(=C/c1ccco1)C(=O)O	16%	0.0	0.7%	-1.4%	7.1	-5%	8%
Cc1ccc(S(=O)(=O)Nc2cc(-c3nn(C)c(=O)c4ccccc34)ccc2N2CCOCC2)cc1	5%	-2.6	11%[38.3 µM]	-3.8%	0.3	-10%	19%
O=C(c1[nH]c(C(F)(F)F)nc1-c1ccccc1)N1CCN(c2ncc(C(F)(F)F)cc2Cl)CC1	.	-1.0	2.2%	-2.5%	.	.	.
CN(Cc1cccs1)C(=O)c1ccc(S(=O)(=O)NCc2ccco2)cc1	-19%	-3.2	1.0%	-1.0%	0.2	7%	0%
N#CC(C#N)=C1c2cc(S(N)(=O)=O)ccc2-c2ccc(S(N)(=O)=O)cc21	-2%	-0.9	22%	0.7%	5.3	40µM*	-8%
Cc1ccnc(Nc2nc(-c3sc(C)nc3C)cs2)c1	-3%	3.4	-2.4%	.	.	.	-19%
CCNC(=O)/C=C1\NC(C)(C)Cc2c1ccc1ccccc21	-9%	4.5	1.1%[38.3 µM]	-8.7%	2.4	14%	?
C=CCn1c(SCc2nc3cc(C(F)(F)F)ccc3c(=O)[nH]2)nc2sc(CC)cc2c1=O	?	-1.0	11%	3.1%	8.8	-14%	7%
COc1cc2nc(CN3CCN(S(=O)(=O)c4ccc(C)c(C)c4)CC3)[nH]c(=O)c2cc1OC	-24%[15.4 µM]	4.9	1.5%	.	11	-1%	-14%
CS(=O)(=O)Nc1ccc(S(=O)(=O)N2CCCCCC2)cc1	4%	-0.6	-2.8%	.	-4.5	-9%	7%
CNC(=S)N1CCN=C1Nc1nc(C)cc(C)n1	11%[15.4 µM]	-4.4	0.4%	.	0.4	12%	-3%
N#CCC(=O)N/N=C/c1cc([N+](=O)[O-])ccc1N1CCOCC1	-19%[15.4 µM]	1.4	-0.3%	.	-2.4	5%	-14%
CN(C)/N=C1\CCS(=O)(=O)c2sccc21	-28%	-2.7	-1.3%	0.0%	-3.6	2%	1%
CCOc1ccc(-c2nc(N)ncc2Oc2ccccc2Br)c(O)c1	-4%	-3.6	9.1%	-6.6%	6.4	-2%	0%
C/C=C/c1ccc(OCCCCN2CC(C)CC(C)C2)c(OC)c1 (stereo not drawn)	-5%[15.4 µM]	-3.6	-0.4%	0.0%	-3.2	?	25%

Other entries follow.
SMILES	gsp agonist	D2 agonist	PINK1 expr mod	ClpP mod	Menin-MLL FL inh	Sfp PPTase inh	gsp antag
O=C(Nc1cccc2ccccc12)NC1CC1	1%	-4.8	4.0%	3.9%	.	.	.
CCOc1ccc(N2C(=O)c3cccnc3C2Nc2ccc(C)c(C)c2)cc1 (stereo not drawn)	13%	-2.6	-0.9%	-0.1%	7.5	11%	-5%
COc1cc(CNCCc2c[nH]c3ccccc23)ccc1OCc1ccc(F)cc1	-11%	-2.2	-3.0%	0.3%	1.3	-17%	13%
Cc1ccc(Cl)c(OCC(=O)OCC(=O)NC2CCCc3ccccc32)c1 (stereo not drawn)	?	-6.3	0.9%	1.3%	1.1	13%	6%
CC1CCN(C(=O)/C(=C\c2ccccc2F)NC(=O)c2ccccc2)CC1	16%[15.4 µM]	-2.2	-0.6%	.	.	11%	5%
Cc1cccc(-n2c(C)cc(C(=S)N3CCOCC3)c2C)c1C	0%[15.4 µM]	-2.2	-1.1%	-2.7%	0.1	14%	8%
CC(OC(=O)Cc1c(F)cccc1Cl)C(=O)NCCC1=CCCCC1 (stereo not drawn)	?	1.3	-2.1%	-4.5%	-0.2	10%	-4%
COC(=O)c1ccc(S(=O)(=O)N2Cc3ccccc3C2)cc1	-2%[15.4 µM]	1.2	5.8%	.	0.7	23%	7%
CCc1nc2c(OCCC3CCCCC3)cccn2c1N(C=O)Cc1ccc(OC)cc1	.	-2.0	?	-6.1%	.	.	.
O=C(COC(=O)CSc1nnc(-c2ccc(Cl)cc2)o1)Nc1cc(Cl)ccc1Cl	26%	-3.0	-0.5%	1.9%	-2.9	5%	4%
O=C(NCCc1cccc(F)c1)/C(=C/c1cccnc1)NC(=O)c1ccccc1	22%	1.0	0.3%	-0.4%	-1.0	1%	-5%
COc1cc(/C=N/Nc2ncc(C(F)(F)F)cc2Cl)cc(OC)c1O	2%	6.4	25%	-3.8%	-1.2	89µM*	17%
Cc1c(NCc2nc3ccccc3[nH]2)c(=O)n(-c2ccccc2)n1C	-5%	2.3	0.0%[38.3 µM]	-1.6%	1.2	7%	5%
O=C(/C=C/c1c(F)cccc1Cl)c1ccc(F)cc1	20%	-1.1	3.3%	-12%	-4.8	?	3%
COc1ccc(-c2cnn3cc(-c4cccc(Cl)c4)cnc23)cc1	4%	-3.1	1.3%	0.5%	0.4	15%	7%
CN1C(=O)CC(N2CCN(CC(N)=O)CC2)C1=O (stereo not drawn)	-12%	-2.6	0.8%	-1.2%	0.8	10%	6%
O=C(Nc1ccon1)Nc1cccc(Cl)c1Cl	25%	-1.9	-1.4%	0.9%	2.7	12%	-1%
O=C(COC(=O)c1ccc([N+](=O)[O-])o1)NCc1ccccc1	-3%[15.4 µM]	3.9	-1.3%	0.5%	.	.	1%
S=C(NCc1ccco1)Nc1ccc(Br)cc1Cl	9%[15.4 µM]	7.9	2.6%	.	-2.0	13%	-7%
COc1ccc(-c2ccc(=O)n(CC(=O)NCC3COCCO3)n2)cc1 (stereo not drawn)	-12%[15.4 µM]	-2.9	-2.7%	.	.	.	9%
Cc1ccc(C(O)(C(=O)NN(C(=O)c2ccccc2)c2ccccc2)c2ccc(C)cc2)cc1	-13%	1.0	10%	0.6%	1.7	22%	-16%
CCC(=O)N1CCC1(C)C(=O)Nc1ccc(OC(F)F)cc1 (stereo not drawn)	.	-3.6	-0.5%	1.0%	.	.	.
Cn1nnc(NC(=S)NC(=O)c2cccc3ccccc23)n1	-11%[15.4 µM]	-20	-0.9%	.	.	35µM*	-3%
CCc1ccccc1-n1c(SCC(=O)NC)nnc1-c1ccco1	11%	2.6	-0.5%	0.8%	2.3	18%	1%
Cc1cccc(N2CC3=C(C2=O)C(c2ccccc2)NC(=O)N3C)c1 (stereo not drawn)	-3%	-3.0	-0.1%	-8.5%	4.5	19%	-1%

The list goes on:
SMILES	gsp agonist	D2 agonist	PINK1 expr mod	ClpP mod	Menin-MLL FL inh	Sfp PPTase inh	gsp antag
NC(=O)C1CC(=O)N(Cc2ccc3c(c2)OCO3)C(=Nc2ccccc2)S1 (stereo not drawn)	-22%	-3.4	.	4.2%	2.2	16%	-1%
CC1(C)CC(=O)C2=C(C1)OC(N)=C(C#N)C21C(=O)N(CN2CCOCC2)c2ccccc21 (stereo not drawn)	5%	2.4	1.4%	1.4%	-1.6	16%	9%
Cc1ccc([N+](=O)[O-])cc1NC(=O)CN1CCC(C)CC1	22%[15.4 µM]	5.3	-1.3%	-0.4%	-2.7	-1%	-6%
CC(=O)Nc1cccc(NC(=O)COc2ccccc2C)c1	-42%[inhibitor]	1.2	-0.3%	.	-3.9	14%	-1%
CCOc1ccc(NC(=O)CN2CCN(C(=O)c3ccco3)CC2)cc1S(=O)(=O)N1CCCC1	?	0.0	-1.2%	?	.	.	8%
N/C(=N\OC(=O)CCCN1C(=O)c2ccccc2C1=O)c1ccc(Cl)cc1	15%	-0.2	0.4%	-0.5%	-1.5	-5%	-3%
CCN(Cc1ccccc1)C(c1ccncc1)c1nnnn1C(C)(C)C (stereo not drawn)	-6%	0.3	23%[38.3 µM]	-0.6%	4.7	17%	-2%
CCOC(=O)N1CCC(NC(=O)c2cn(-c3ccc(OC)cc3)c(=O)c3ccccc23)CC1	7%	0.7	6.6%	2.1%	0.5	14%	2%
Cc1ccc(NS(=O)(=O)c2csc(C(N)=O)c2)cc1C	5%[15.4 µM]	1.8	0.8%	1.0%	.	16%	12%
CCN(CC)CCNC(=O)c1ccc(NC(=O)Cc2ccccc2F)cc1	9%[15.4 µM]	-6.1	1.0%	.	-7.6	18%	.
COc1ccccc1C1CC(c2cccs2)=Nc2ccccc2S1 (stereo not drawn)	-42%[inhibitor]	-4.7	-0.8%	-2.0%	-7.4	50µM*	-1%
CCOC(=O)C1(C)/C(=N/Nc2ccc(Cl)cc2)C(=O)C(=O)N1c1ccccc1 (stereo not drawn)	23%	-7.8	-2.4%	0.3%	2.0	-23%	-28%

From PubChem BioAssay

Rows were taken by chance. About 5.1% of those tested had a hit in this group.
